# SARS PLpro yeast – blocks SARS-CoV papain-like protease in a yeast assay. S. cerevisiae expressing SARS-CoV PLpro, growth rescue; control for the full effect not named in the record. Potency, µM (highest dose often 32.9 µM), for inactives: at the top dose activity, positive = growth rescue. 330,000 compounds, 0.19% hits. AID 485353; also: 0% is about no effect; nearly all actives have a fitted effect of over 55% in size; growth read by luminescence after 48 h
# RE007 growth inh – less growth of the S. pombe RE007 Vpr strain. S. pombe RE007 Vpr strain, BacTiter-Glo ATP luminescence, 24 h; control for the full effect not named in the record. Potency, µM (doses to about 92.2 µM), without a hit: at the top dose activity change, negative = less growth. 360,000 compounds, 0.21% hits; active = well fitted falling curve with a large enough effect; inconclusive = small, poorly fitted or top-dose-only effect; inactive = no such curve, though single readings can be large or run the other way;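 also: % is scaled to controls: 0 for no effect and ±100 for the full control effect; nearly all actives have a fitted effect of over 50% in size; the assay follows cell death caused by Vpr and the record does not say whether a fall means rescue or toxicity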
#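 Fission yeast strain RE007, carrying one chromosomally integrated HIV-1 vpr copy, was seeded at OD 0.01 in PMG+AL medium with 23 nL pinned compound. After 24 h at 30 °C and 99% humidity, viability was read by BacTiter-Glo luminescence.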
# 2A StopGo – FMDV 2A StopGo reporter, luciferase signal | AID 1159524 | 410,000 compounds, 1.2% hits | Potency, µM (highest dose often 57.9 µM), without a hit: at the top dose signal change, negative = less light | human cells with a luciferase reporter of 2A StopGo recoding; control for the full effect not named in the record; active = well fitted falling curve with a large enough effect; inconclusive = small, poorly fitted or top-dose-only effect; inactive = no such curve, though single readings can be large or run the other way; tested in HEK293T cells; also: % is scaled to controls: 0 for no effect and ±100 for the full control effect; nearly all actives have a fitted effect of over 45% in size; luciferase light after 4 h
# Lassa entry inh – inhibitors of Lassa virus binding or cell entry; 300,000 compounds, 1.2% hits; Lassa virus pseudotype entry inhibition, cell reporter; control for the full effect not named in the record; Potency, µM (series often up to 37.9 µM), for inactives: at the top dose activity change, negative = inhibition, actives largely listed as inhibitors; active means well fitted inhibition curve with a large enough effect; inconclusive means small, poorly fitted or top-dose-only effect, or effect the other way; inactive means flat fitted curve, though single readings scatter; tested in HEK293 cells; also: % is scaled to controls: 0 for no effect and ±100 for the full control effect; nearly all actives have a fitted effect of over 50% in size; luciferase read-out
# Cruzain inh noDet – blocks cruzain activity in detergent-free assay. Potency, µM, for the others: max response, negative = inhibition, actives largely listed as inhibitors. purified cruzain, Z-FR-AMC fluorescence, no detergent. 200,000 compounds, 2.3% hits. P25779; active = well fitted curve in the direction sought with a large enough effect; inconclusive = small, poorly fitted or top-dose-only effect, or another doubt; inactive = no such curve, though single readings can be large; an effect the other way counts as inactive or inconclusive;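 also: plate controls were enzyme without inhibitor for no effect and buffer without enzyme for full effect; nearly all actives have a fitted effect of over 40% in size; top concentration of the series not given in the record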
# Target sequence (P25779 123-467 limits assumed): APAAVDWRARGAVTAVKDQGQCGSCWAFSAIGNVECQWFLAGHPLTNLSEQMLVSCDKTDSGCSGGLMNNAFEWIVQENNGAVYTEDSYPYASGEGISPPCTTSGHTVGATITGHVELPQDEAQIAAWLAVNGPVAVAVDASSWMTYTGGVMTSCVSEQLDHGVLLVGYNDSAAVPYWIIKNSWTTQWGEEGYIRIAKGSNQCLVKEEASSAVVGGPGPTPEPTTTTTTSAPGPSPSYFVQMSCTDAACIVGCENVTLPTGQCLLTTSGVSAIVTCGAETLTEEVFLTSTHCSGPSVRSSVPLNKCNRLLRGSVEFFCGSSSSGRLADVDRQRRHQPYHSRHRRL
#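 Detergent-free condition (0.00005% Triton X-100) in acetate buffer pH 5.5 with DTT. 1.5 nM enzyme and compound were pre-mixed 15 min, then 2 uM Z-FR-AMC substrate added; reaction progress from fluorescence change between first and third reads (60 s).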
# MARV entry inh – inhibitors of Marburg virus binding or cell entry; Marburg virus pseudotyped entry inhibition, cell reporter; control for the full effect not named in the record; about a third of the inactives were read at about 46 µM; Potency, µM (titrated, usually from 37.8 µM), for inactives: at the top dose activity change, negative = inhibition, actives largely listed as inhibitors; 300,000 compounds, 1.8% hits; AID 540276; active = well fitted inhibition curve with a large enough effect; inconclusive = small, poorly fitted or top-dose-only effect, or effect the other way; inactive = flat fitted curve, though single readings scatter; tested in HEK293 cells; about a fifth of its hits are not listed in these tables; also: % is scaled to controls: 0 for no effect and ±100 for the full control effect; luciferase read-out
# NS1 function inh – inhibitors of influenza NS1 protein function | Potency, µM (doses to about 46.1 µM), without a hit: at the top dose activity, positive = more growth | 270,000 compounds, 0.4% hits | S. cerevisiae slowed by influenza A NS1, growth recovery by OD600 | AID 2326; also: actives are rising curves; nearly all actives have a fitted effect of over 50% in size
#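 Growth recovery, yeast-based: influenza A NS1 expressed in S. cerevisiae causes slow growth, and suppressors are detected by OD600. The parent strain without NS1 is used as positive control.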
# Cruzain Triton – inhibitors of Trypanosoma cruzi cruzain with detergent; P25779; purified cruzain, Z-FR-AMC fluorescence, 0.01% Triton; Potency, µM, without a hit: max response, negative = inhibition, hits mostly inhibitors; 200,000 compounds, 0.43% hits; active = well fitted curve in the direction sought with a large enough effect; inconclusive = small, poorly fitted or top-dose-only effect, or another doubt; inactive = no such curve, though single readings can be large; an effect the other way counts as inactive or inconclusive;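 also: plate controls were neutral wells for no effect and buffer without enzyme for full effect; nearly all actives have a fitted effect of over 40% in size; top concentration of the series not given in the record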
#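 Detergent-containing arm of a paired screen for aggregation-based inhibition: 0.01% Triton X-100 present. Cruzain at 1.5 nM cleaved 2 uM Z-FR-AMC at pH 5.5 with 5 mM DTT; AMC fluorescence gain over 60 s measured activity.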
# Active calls of the source: *; ? = inconclusive; · = no result given; & = joins results of further samples; [ ] = remark or other dose. Unless noted, calls follow the shape of the dose curve; as a rule, active means well fitted rising curve with a large enough effect; inconclusive means small, poorly fitted or top-dose-only effect; inactive means no such curve, though single readings can be large or run the other way. Potency is read from the fitted curve at half-maximal effect.
1: O=C(CSCc1nc2c(nnn2Cc2ccc(F)cc2)c(=O)[nH]1)Nc1c(Cl)cc(Cl)cc1Cl
2: O=C(N=C1SC2CS(=O)(=O)CC2N1c1cccc(Cl)c1)C1CCCO1 (configuration not stated)
3: N#CCCN(CC(=O)O)S(=O)(=O)c1ccccc1
4: COc1cccc(N2CCN(c3ncnc4c3[nH]c3ccccc34)CC2C)c1 (configuration not stated)
5: Cn1c(=O)[nH]c(=O)c2c1nc(NCCc1ccccc1)n2Cc1ccc(F)cc1
6: CCN(CC)S(=O)(=O)c1ccc(C(=O)OCC(=O)Nc2sc3c(c2C#N)CCCCC3)cc1
compound no.	1	2	3	4	5	6
SARS PLpro yeast	-5%	0%	8%	-69%	·	10%
RE007 growth inh	11%	19%	-4%	·	·	-4%
2A StopGo	0%	10%	-2%	·	?	25%
Lassa entry inh	-1%	-5%[46.1 µM]	1%	·	?	7%
Cruzain inh noDet	·	·	-5%	-19%	-13%	?
MARV entry inh	-1%	14%[46.1 µM]	11%	·	?	?
NS1 function inh	5%	1%	3%	4%	·	5%
Cruzain Triton	·	·	3.8%	-11%	-4.0%	-10%

7: N#C/C(=C\c1ccc(Cl)cc1)c1nc2ncccc2[nH]1
8: CC(C)(C)c1ccc(-c2nnc(SCC(=O)NCC3CCCO3)n2N)cc1 (configuration not stated)
9: Cc1ccccc1OCC(=O)OCC(=O)NCc1ccc2c(c1)OCO2
10: COc1ccc(F)cc1S(=O)(=O)N1CCN(C(=O)c2ccco2)CC1
11: NC(=O)N/N=C/c1cn(-c2ccccc2)nc1-c1cccnc1
12: COc1ccc(NC(=O)Cn2nnc(C(=O)NCc3cccs3)c2N)cc1
compound no.	7	8	9	10	11	12
SARS PLpro yeast	0%	14%	1%	0%	-1%	-9%
RE007 growth inh	-14%	-3%	-12%	3%	-24%	18%
2A StopGo	-5%	6%	13%	-6%	14%	-15%&11%
Lassa entry inh	-5%	15%	17%[46.1 µM]	3%	·	-9%[46.1 µM]
Cruzain inh noDet	-7%	·	·	·	·	?
MARV entry inh	-7%	?	0%[46.1 µM]	0%	·	12%[46.1 µM]
NS1 function inh	-23%	·	·	2%	-7%	16%
Cruzain Triton	-0.2%	·	·	·	·	-1.1%

# Three entries out of the list, sorted by formula weight, low to high.
11: NC(=O)N/N=C/c1cn(-c2ccccc2)nc1-c1cccnc1
10: COc1ccc(F)cc1S(=O)(=O)N1CCN(C(=O)c2ccco2)CC1
12: COc1ccc(NC(=O)Cn2nnc(C(=O)NCc3cccs3)c2N)cc1
compound no.	11	10	12
SARS PLpro yeast	-1%	0%	-9%
RE007 growth inh	-24%	3%	18%
2A StopGo	14%	-6%	-15%&11%
Lassa entry inh	·	3%	-9%[46.1 µM]
Cruzain inh noDet	·	·	?
MARV entry inh	·	0%	12%[46.1 µM]
NS1 function inh	-7%	2%	16%
Cruzain Triton	·	·	-1.1%

# (cont.)
13: Cc1ccc(CNC(=O)CNS(=O)(=O)c2cccc3nsnc23)cc1
14: CCCOc1ccc(C2C(=O)N(C3CCCCCC3)CC(=O)N2Cc2ccccc2OC)cc1OC (configuration not stated)
15: CNC(=O)c1ccsc1NC(=O)c1ccc(S(=O)(=O)N2CCCc3ccccc32)cc1
16: Cc1cccc(NC(=O)c2cccc3c2-c2ccccc2C3=O)n1
17: Cc1cc(NC(=O)c2ccco2)ncc1NC(=O)Cc1ccccc1
18: C=CCNCc1cccn1-c1ccccc1
compound no.	13	14	15	16	17	18
SARS PLpro yeast	20%	·	-29%	-1%	-2%	8%
RE007 growth inh	3%	·	7%	0%	-14%	-13%
2A StopGo	2%	-1%	?	-5%	51%[activator]	4%
Lassa entry inh	2%	-25%[46.1 µM]	16µM*	-23%[46.1 µM]	25%	0%
Cruzain inh noDet	5%	8%	?	·	14%	-7%
MARV entry inh	-1%[46.1 µM]	·	?	-12%[46.1 µM]	11%	-8%
NS1 function inh	6%	·	?	3%	-13%	1%
Cruzain Triton	-2.3%	-0.7%	-3.9%	·	2.6%	-0.2%

# Grouped by structure: the compounds so far containing a furan ring, fused or not (two)
10: COc1ccc(F)cc1S(=O)(=O)N1CCN(C(=O)c2ccco2)CC1
17: Cc1cc(NC(=O)c2ccco2)ncc1NC(=O)Cc1ccccc1
compound no.	10	17
SARS PLpro yeast	0%	-2%
RE007 growth inh	3%	-14%
2A StopGo	-6%	51%[activator]
Lassa entry inh	3%	25%
Cruzain inh noDet	·	14%
MARV entry inh	0%	11%
NS1 function inh	2%	-13%
Cruzain Triton	·	2.6%

# Continued:
19: COc1cc(C(=O)NC(c2ccc(Cl)cc2)c2cc(Cl)c3cccnc3c2O)cc(OC)c1OC (configuration not stated)
20: O=C(Nc1ccc(F)cc1)c1cccc(N2CCCS2(=O)=O)c1
21: O=S(=O)(c1ccccc1Br)N(Cc1ccccc1)CC(O)COCc1ccccc1 (configuration not stated)
22: Cc1ccc(N(Cc2cc3ccc(C)cc3[nH]c2=O)S(C)(=O)=O)c(C)c1
23: CCOc1ccc(NC(=O)CN2CC(c3ccccc3)CC2=O)cc1 (configuration not stated)
24: O=C(CCCn1c(=S)[nH]c2ccc(Br)cc2c1=O)NCC1CCCO1 (configuration not stated)
compound no.	19	20	21	22	23	24
SARS PLpro yeast	·	·	-50%	0%	0%	?
RE007 growth inh	·	·	-15%	-10%	3%	-10%
2A StopGo	-22%	12%	-18%	-21%	6%	-28%
Lassa entry inh	?	?	-6%[46.1 µM]	·	·	-8%
Cruzain inh noDet	1%	-8%	·	·	0%	0%
MARV entry inh	·	·	·	·	·	4%
NS1 function inh	·	·	·	-5%	-2%	1.8µM*
Cruzain Triton	2.1%	0.2%	·	·	4.8%	3.4%

25: CC(=O)C1=C(O)C(=O)N(CCCn2ccnc2)C1c1ccc(C)cc1 (configuration not stated)
26: Cc1cccc(NC(=O)N2CCC(n3c(C)nc4cccnc43)CC2)c1
27: c1c2c(cc3sc(N4CCOCC4)nc13)OCCO2
28: Cc1ccc(Nc2cc(C)nc3ccccc23)c(C)c1
29: CCc1nnc(NC(=O)CN2CCN(Cc3ccc(C)cc3)CC2)s1
30: CC(=O)Nc1cccc(NC(=O)/C=C/c2ccc(S(=O)(=O)N3CCOCC3)cc2)c1
compound no.	25	26	27	28	29	30
SARS PLpro yeast	0%	·	-13%	·	4%	2%
RE007 growth inh	5%	·	?	-2%	-9%	9%
2A StopGo	·	0%	-86%	?	-17%	-28%
Lassa entry inh	13%	7%[46.1 µM]	5.2µM*	-9%	·	1%
Cruzain inh noDet	-14%	12%	-4%	·	·	·
MARV entry inh	-3%	·	?	10µM*	·	?
NS1 function inh	13%	·	-4%	·	8%	·
Cruzain Triton	-0.8%	1.2%	0.4%	·	·	·

31: Clc1cccc(CSc2ncnc3c2ncn3C2CCCCO2)c1 (configuration not stated)
32: CCCCNC(=S)NNC(=O)c1csc(CC)c1
33: COc1ccc(-n2c(Cc3cccn3C)nnc2SCC(=O)Nc2nccs2)cc1
34: c1ccc(Cn2nnc3c(NCc4ccc5c(c4)OCO5)nc(C4CC4)nc32)cc1
35: O=C(NNc1cccc(Cl)n1)Nc1ccccc1Cl
36: O=C(Cc1ccccc1)NCC(=O)N1CCC1
compound no.	31	32	33	34	35	36
SARS PLpro yeast	·	0%	-21%	0%	2%	·
RE007 growth inh	-13%	0%	-1%	28%	4%	7%
2A StopGo	15%	50%[activator]	-12%	-10%	16%	-14%
Lassa entry inh	6%[46.1 µM]	?	19%	-17%	3%	10%
Cruzain inh noDet	·	-1%	20%	-28%	6%	·
MARV entry inh	?	-3%	7%	4%[46.1 µM]	20%	-2%[46.1 µM]
NS1 function inh	·	5%	-3%	15%	9%	13%
Cruzain Triton	·	1.2%	-0.8%	4.9%	3.1%	·

37: COc1ccccc1CC(=O)N1CCN(c2ccccc2)CC1
38: CCOCCn1ccc2c(OCC(=O)NCc3ccc(F)cc3)cccc2c1=O
39: COc1ccc(Cl)cc1N1C(=O)C2CCCN2C1c1cccc(F)c1 (configuration not stated)
40: CN(C)C(=O)c1cc(C(=O)c2ccccc2F)c[nH]1
41: O=C(NCC1CCCN(Cc2ccc3nonc3c2)C1)c1cccc(C(F)(F)F)c1 (configuration not stated)
42: CCC1CCCCN1C(=O)c1cccc(S(=O)(=O)Nc2cc(C(F)(F)F)ccc2Cl)c1 (configuration not stated)
compound no.	37	38	39	40	41	42
SARS PLpro yeast	3%	·	-6%	1%	2%	11%
RE007 growth inh	0%	·	-9%	-8%	6%	-4%
2A StopGo	-12%	-18%	0%	25%	-26%	10%
Lassa entry inh	·	?	·	·	9%	6%
Cruzain inh noDet	·	-4%	-10%	·	·	-5%
MARV entry inh	·	·	·	·	-15%[46.1 µM]	-17%
NS1 function inh	-4%	·	-26%	3%	4%	-16%
Cruzain Triton	·	-1.3%	-0.6%	·	·	-10%

43: Cc1ccc2c(c1)N(C(=O)N1CCC(C(=O)NCCC3=CCCCC3)CC1)CC(C)O2 (configuration not stated)
44: O=C(COC(=O)CNC(=O)c1ccc(Cl)cc1Cl)Nc1cccc(S(=O)(=O)N2CCCC2)c1
45: COc1cc(NC(=S)NC(=O)c2ccccc2C)ccc1NC(=O)c1cccs1
46: COc1cc2ccccc2cc1C(=O)N1CCN(c2nc3c(F)cc(F)cc3s2)CC1
47: CCOC(=O)c1ccc(NC(=S)N(Cc2cccnc2)Cc2ccco2)cc1
48: CC12CCC(=O)N1C(C(=O)NNC(=O)c1cccc(Cl)c1)CS2 (configuration not stated)
compound no.	43	44	45	46	47	48
SARS PLpro yeast	·	0%	-2%	·	-8%	1%
RE007 growth inh	·	2%	1%	·	16%	4%
2A StopGo	0%	0%	-12%	?	-30%	11%
Lassa entry inh	3%[46.1 µM]	-2%	0%	14%[46.1 µM]	-2%	-5%
Cruzain inh noDet	3%	·	-21%	-28%	·	·
MARV entry inh	·	3%	-17%	·	?	-13%
NS1 function inh	·	·	14%	·	·	·
Cruzain Triton	-3.0%	·	0.6%	-21%	·	·

# Assay outcomes deposited in PubChem BioAssay by National Center for Advancing Translational Sciences (NCATS).
